Ecoli growth: blocks Escherichia coli growth | OD600, 23 h; stronger effect = lower value | OD600 absorbance (concentration not given with the values) | 330,000 tested, 0.21% active | AID 1053175;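 active means OD600 absorbance below the run mean of sample wells minus 3.6 SD, in any replicate, cut at about 0.56 in these data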;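 further: stock transfer was 300 nL into about 60 µL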
* hit, by the source's call; & = joins results of further samples.

SMILES	Ecoli growth
COc1ccc(CC2CN3C(=NCC3C(C)C)N2CCNC(=O)CCC2CCCCC2)cc1 (stereo not drawn)	0.679
CC=C1COC(C(=O)NCc2ccncc2)(C(F)(F)F)C=C1C=C1CCCCC1 (stereo not drawn)	0.693
CC(C)CC(NC(=O)c1nc[nH]c1C(=O)N1CCc2ccccc2C1)C(=O)OC(C)(C)C (stereo not drawn)	0.675
C=CCC(CC(=O)NCCO)C(=O)NC(C)COC(=O)C(CC=C)Cc1ccc(F)cc1 (stereo not drawn)	0.625&0.682&0.642
COC(=O)[C@]1(C)NC(c2ccc(-c3cccc(Cl)c3)cc2)C2C(=O)N(C)C(=O)C21 (stereo partly drawn)	0.663
C=C1CCN(C(Cc2ccccc2)C(=O)NC2CCN(Cc3ccccc3)CC2)S(=O)(=O)c2ccccc21 (stereo not drawn)	0.654
NC(Cn1cncn1)=NNC(=O)C(=O)Nc1ccccc1	0.709
C=CC(C)N(Cc1ccc(OC)cc1)S(=O)(=O)N(Cc1ccccc1)C(C=C)C(C)C (stereo not drawn)	0.677
CCNC(=O)CC1SC(=NN=C(C)c2ccccc2)NC1=O (stereo not drawn)	0.664
COc1ccccc1CC(N)=NOC(=O)C=Cc1ccccc1	0.695
COc1ccc(OCC(O)CNC(=O)c2cccc3c2C(=O)c2ccc(Cl)cc2S3(=O)=O)cc1 (stereo not drawn)	0.597
Nc1ccccc1C(=O)C=Cc1ccc2c(c1)OCO2	0.604
Cc1cc([N+](=O)[O-])ccc1NC(=O)C=Cc1cccs1	0.651
CC1CN(C(C)CO)C(=O)c2cc(N(C)C)ccc2OC1CN(C)S(C)(=O)=O (stereo not drawn)	0.695
CC1CCC(=O)N(CCC(Oc2ccccc2)c2ccccc2)CC1 (stereo not drawn)	0.69
CCOC1OC(C(=O)N2CCN(Cc3ccc4c(c3)OCO4)CC2)=CC(c2csc3ccccc23)C1CCCO (stereo not drawn)	0.641&0.719
CC(CN=[N+]=[N-])CN1CCC(C(C)(C)C)CCC1=O (stereo not drawn)	0.666
COc1ccc(-c2c(C3C4C=CCC(C)C4C(=O)N3Cc3ccccc3)ccc3ccccc23)cc1 (stereo not drawn)	0.711
COc1ccc(C2CC(=O)C=C(c3cccc(Br)c3)C2)cc1 (stereo not drawn)	0.654
O=C(NCC1CCCO1)c1cccc2c1C(=O)c1ccc(-c3ccc(F)cc3OCc3ccccc3)cc1S2(=O)=O (stereo not drawn)	0.687
COC(=O)C1=C(C)N(CC(C)C)C(=O)C1=Cc1cccs1	0.706
CCCCNC(=O)OC1CC2CCC(=O)N3CCC(C1)C23 (stereo not drawn)	0.701
CC1(C(=O)N2CC3(CC(c4cccc(NC(=O)COc5ccc(Cl)cc5)c4)=NO3)CC2C(N)=O)CC1 (stereo not drawn)	0.726
O=S1(=O)CCOCC(CC2CCCCC2)N1Cc1ccccc1F (stereo not drawn)	0.695

Compounds listed so far that contain a Cl atom (3):
SMILES	Ecoli growth
COC(=O)[C@]1(C)NC(c2ccc(-c3cccc(Cl)c3)cc2)C2C(=O)N(C)C(=O)C21 (stereo partly drawn)	0.663
COc1ccc(OCC(O)CNC(=O)c2cccc3c2C(=O)c2ccc(Cl)cc2S3(=O)=O)cc1 (stereo not drawn)	0.597
CC1(C(=O)N2CC3(CC(c4cccc(NC(=O)COc5ccc(Cl)cc5)c4)=NO3)CC2C(N)=O)CC1 (stereo not drawn)	0.726

By substructure, the entries above containing a tert-butyl group
SMILES	Ecoli growth
CC(C)CC(NC(=O)c1nc[nH]c1C(=O)N1CCc2ccccc2C1)C(=O)OC(C)(C)C (stereo not drawn)	0.675
CC(CN=[N+]=[N-])CN1CCC(C(C)(C)C)CCC1=O (stereo not drawn)	0.666

Following part
SMILES	Ecoli growth
CCOC1OC(C(N)=O)=CC(C2CCCCC2)C1CCCO (stereo not drawn)	0.658&0.616
CC1CN(C(C)CO)C(=O)c2cc(NC(=O)CCCCCC(=O)Nc3ccccc3N)ccc2OC1CN(C)Cc1ccncc1 (stereo not drawn)	0.66
CC=C(C)C(=O)Nc1cccc(C2=NOC3(C2)CC(C(N)=O)N(C(=O)c2ccc(Cl)cc2)C3)c1 (stereo not drawn)	0.676
CC[C@]12C(=O)N(C)CC(C3C(=O)N(Cc4ccccc4)C(=O)C31)N2C(=O)c1ccccc1 (stereo partly drawn)	0.681
COc1ccc(C2CC(=O)C=C(c3ccccc3-c3ccccc3)C2)cc1 (stereo not drawn)	0.72
CNC(=O)c1[nH]cnc1C(=O)NC(C)C(=O)OCc1ccccc1 (stereo not drawn)	0.685
O=S1(=O)CCOCC(c2ccccc2)N1Cc1ccccc1 (stereo not drawn)	0.681
CC(C)(C)C1COC(=O)C(Cc2ccc(F)cc2)CCC=CCC(CC(=O)NC(CO)Cc2ccccc2)C(=O)N1 (stereo not drawn)	0.682&0.714&0.684
COC(=O)[C@@]12CCCN1C(c1ccc(-c3ccc(F)cc3)cc1)C1C(=O)N(C)C(=O)C12 (stereo partly drawn)	0.716
C=CCC(CC(=O)NCCO)C(=O)NCC(OC(=O)C(CC=C)CC(=O)OC(C)(C)C)c1ccccc1 (stereo not drawn)	0.66&0.69&0.686
CC(=O)Nc1ccc(SCCN2CCC(O)CCC2=O)cc1 (stereo not drawn)	0.639
c1ccc(C2CNCCN2CCc2cccc3ccccc23)cc1 (stereo not drawn)	0.648
Cc1nc(NC(N)=NS(=O)(=O)c2ccc([N+](=O)[O-])cc2)nc2ccccc12	0.666
O=C(NCc1ccccc1)C1=CC(c2ccc3c(c2)OCO3)CC(OCc2ccc(CO)cc2)O1 (stereo not drawn)	0.67&0.72
N#CCC(c1ccccc1)N1CCN(Cc2ccccc2)CCC1=O (stereo not drawn)	0.692
CC1(C)CC[C@]2(C(=O)O)CC[C@]3(CO)C(=CCC4[C@@]5(C)CC(O)C(O)[C@@](C)(C(=O)O)C5CC[C@]43C)C2C1 (stereo partly drawn)	0.669
CC(=O)N1C(C)C=C[C@]1(Cc1ccccc1)C(=O)NCCc1c[nH]c2ccccc12 (stereo partly drawn)	0.634
CCN1C(=O)NC(c2ccccc2)C(C(=O)OC)=C1C (stereo not drawn)	0.627
CC(C(=O)Nc1ccc2ccccc2c1)C1C[C@@]1(C)C(NC(=O)c1cnccn1)c1ccccc1 (stereo partly drawn)	0.691
CCOC1OC(C(=O)N2CCN(Cc3ccccc3)CC2)=CC(c2ccc(C(F)(F)F)cc2)C1CCCO (stereo not drawn)	0.688
C=CCNC(=O)C(=Cc1ccc2c(c1)OCO2)NC(=O)c1ccc(Br)cc1	0.73
CNCC1Oc2ccc(NC(=O)C3CCCCC3)cc2CC(=O)N(C(C)CO)CC1C (stereo not drawn)	0.647
Cc1noc(C)c1NC(=O)N(C)CC1Oc2ccc(NC(=O)Nc3ccc4c(c3)OCO4)cc2C(=O)N(C(C)CO)CC1C (stereo not drawn)	0.678
COC(=O)C(NC(=O)NCc1ccccc1Cl)C(C)C (stereo not drawn)	0.661

Four compounds drawn at random from the list so far, as already listed:
SMILES	Ecoli growth
O=S1(=O)CCOCC(CC2CCCCC2)N1Cc1ccccc1F (stereo not drawn)	0.695
CCOC1OC(C(=O)N2CCN(Cc3ccc4c(c3)OCO4)CC2)=CC(c2csc3ccccc23)C1CCCO (stereo not drawn)	0.641&0.719
CC1CCC(=O)N(CCC(Oc2ccccc2)c2ccccc2)CC1 (stereo not drawn)	0.69
CC1CN(C(C)CO)C(=O)c2cc(N(C)C)ccc2OC1CN(C)S(C)(=O)=O (stereo not drawn)	0.695

New compounds follow
SMILES	Ecoli growth
CCC1=C(OC(=O)N(CC)CC)N2C(=O)OC(=NCC3CC3)[C@]2(Cc2ccccc2)C2C1=CCC1C(=O)N(c3ccccc3)C(=O)C12 (stereo partly drawn)	0.698
CS(=O)(=O)c1ccc(CNC(=O)C2(C(F)(F)F)CC(=CCCO)CCCO2)cc1 (stereo not drawn)	0.679
CCCC(=O)O[C@]1(C(=O)CO)CCC2C3CCC4=CC(=O)CC[C@]4(C)C3C(O)C[C@@]21C (stereo partly drawn)	0.677
O=C1C=C(c2cccc(Br)c2)CC(c2ccc(F)cc2)C1 (stereo not drawn)	0.674
COc1ccc(CNC(=O)CC2C(=O)N(Cc3ccc(OC)cc3)CC2Cc2ccccc2)cc1 (stereo not drawn)	0.634
C=CCN1c2ccccc2[C@]23CC(C(=O)OC)N(C(=O)c4cc(C)oc4C)C2=NC(C(=O)OC)=C(C(=O)OC)C13 (stereo partly drawn)	0.651
NC(=NOC(=O)c1cc(Br)ccc1Cl)c1ccccn1	0.677
CC(=O)c1ccc(-c2ccc(C3C4C=CCC[C@@]4(C)C(=O)N3Cc3ccccc3)c(F)c2)cc1 (stereo partly drawn)	0.717
COc1ccc(SCC(Cc2ccccc2)N2CCN(CCc3ccccc3)CCC2=O)cc1 (stereo not drawn)	0.666
NC(=NOC(=O)c1cccc(Br)c1)c1ccc(Br)cc1	0.722
CC1(C)OC2C(CO)OC(n3c(N4CCCCC4)nc4c(N)ncnc43)C2O1 (stereo not drawn)	0.621
COC(=O)[C@]1(CC(C)C)NC(c2ccc(-c3ccc(C(C)=O)cc3)cc2)C2C(=O)N(C)C(=O)C21 (stereo partly drawn)	0.727
COc1ccc2[nH]c3c(c2c1)C1CCN2C(=O)CCCC(C3)C12 (stereo not drawn)	0.699
Cc1ccc(C2CC=C(C(=O)O)C(c3ccc(F)cc3)N2S(=O)(=O)c2ccc(C)cc2)cc1 (stereo not drawn)	0.68
COc1ccc(C2C=CCN(S(=O)(=O)c3ccc4ccccc4c3)CC(=O)N2Cc2ccc(F)cc2)cc1 (stereo not drawn)	0.738
NC(COc1ncn(-c2ccccc2)n1)=NS(=O)(=O)c1ccc(Cl)cc1Cl	0.675
NCC1OC(OC2C(N)CC(N)C(OC3OC(CO)C(O)C(N)C3O)C2O)C(N)CC1O (stereo not drawn)	0.677
NCCCCC1CNC(=O)C(=O)N1CC1CCCCC1 (stereo not drawn)	0.668
CCCCCCSc1ccc(C2C3C(=O)N(CC)C(=O)C3[C@]3(C(=O)OC)CCCCN23)cc1OC (stereo partly drawn)	0.696&0.733
CC(NC(=O)c1nc[nH]c1C(=O)NCC(=O)OCc1ccccc1)c1ccccc1 (stereo not drawn)	0.668
CCCCN1C(=O)C(=O)NCC1C(C)O (stereo not drawn)	0.625
O=C(CC1CC=CCCC(Cc2ccc(F)cc2)C(=O)OCCNC1=O)NCCO (stereo not drawn)	0.732&0.694
COc1ccc(C2CC(=O)C=C(c3ccc(Cl)c(Cl)c3)C2)cc1 (stereo not drawn)	0.628
CC1CN(C(C)CO)C(=O)c2cc(NS(=O)(=O)c3cn(C)cn3)ccc2OC1CN(C)C(=O)Nc1ccc(C(F)(F)F)cc1 (stereo not drawn)	0.674
CC(C)C1C=C(C(=O)O)OC(OCc2ccc(CO)cc2)C1 (stereo not drawn)	0.701
CC(=CC(NP(=O)(c1ccccc1)c1ccccc1)c1ccccc1)CO[Si](c1ccccc1)(c1ccccc1)C(C)(C)C (stereo not drawn)	0.688
CC(=O)CC1c2cc(C(F)(F)F)ccc2S(=O)(=O)N1c1ccccc1 (stereo not drawn)	0.661
COCCN1C(=O)NC(c2ccccc2)C(C(=O)OC)C1C (stereo not drawn)	0.696&0.693
O=C(C=Cc1ccc(F)cc1)NC(Cc1c[nH]c2ccccc12)C(=O)O (stereo not drawn)	0.718
COC(=O)c1cccc(C23CC4(C2)C(CN(Cc2ccc(C(F)(F)F)cc2)C4c2ccccc2)C3c2ccc(Cl)nc2)c1 (stereo not drawn)	0.746
CS(=O)(=O)c1ccc(CNC(=O)[C@]2(C(F)(F)F)CC(CCc3ccccc3)CCCO2)cc1 (stereo partly drawn)	0.64
CC1CN(C(C)CO)C(=O)Cc2cc(NC(=O)CCC(F)(F)F)ccc2OC1CN(C)C(=O)Nc1ccc(F)cc1 (stereo not drawn)	0.646
COc1ccc(C2C3C=CCC[C@@]3(C)C(=O)N2Cc2ccccc2)cc1Cl (stereo partly drawn)	0.717
CC1(C)CCC[C@@]2(C)C1CC[C@@]1(C)Oc3ccc(O)cc3CC21 (stereo partly drawn)	0.66
O=C(C=Cc1ccccc1)NCCSc1ccc(Cl)cc1	0.668
CC=C(C)C(=O)Nc1cccc(C2=NOC3(C2)CC(C(N)=O)N(C(=O)c2cc([N+](=O)[O-])cc([N+](=O)[O-])c2)C3)c1 (stereo not drawn)	0.62

Not a retest: 3 of the compounds above.
SMILES	Ecoli growth
CC1(C)CCC[C@@]2(C)C1CC[C@@]1(C)Oc3ccc(O)cc3CC21 (stereo partly drawn)	0.66
O=C(C=Cc1ccccc1)NCCSc1ccc(Cl)cc1	0.668
CC=C(C)C(=O)Nc1cccc(C2=NOC3(C2)CC(C(N)=O)N(C(=O)c2cc([N+](=O)[O-])cc([N+](=O)[O-])c2)C3)c1 (stereo not drawn)	0.62

The list continues.
SMILES	Ecoli growth
Cc1cc(C(=O)Nc2cccc3c2OC(CN(C)CC2CC2)C(C)CN(C(C)CO)C3=O)n(C)n1 (stereo not drawn)	0.727
CCOC(=O)C1C2COc3cc(OC)ccc3C2N2C(=O)c3cc(OC)c(OC)cc3NC(=O)[C@@]12C (stereo partly drawn)	0.691
Cc1noc(C)c1NC(=O)Nc1ccc2c(c1)C(=O)N(C(C)CO)CC(C)C(CN(C)C(=O)NC1CCCCC1)O2 (stereo not drawn)	0.647
COC(=O)C1NC(C(NC(=O)COc2ccccc2)C(=O)NCc2ccsc2)SC1(C)C (stereo not drawn)	0.696
CC(C)(O)C1CC[C@@](C)(C2CC[C@]3(C)C2C(O)CC2[C@@]4(C)CCC(O)C(C)(C)C4C(OC4OC(CO)C(O)C(O)C4OC4OCC(O)C(O)C4O)C[C@]23C)O1 (stereo partly drawn)	0.66
COC(=O)C1=C(C(=O)OC)C2Nc3ccccc3[C@@]23CC(C(=O)OC)N(C(C)=O)C3=N1 (stereo partly drawn)	0.683
CC(=O)CC1c2cc(C(F)(F)F)ccc2S(=O)(=O)N1c1ccc(N(C)C)cc1 (stereo not drawn)	0.664
COCCN1C(=O)NC(CCc2ccccc2)C(C(C)=O)=C1C (stereo not drawn)	0.678
CC=CC(=O)Nc1cccc(C2=NOC3(C2)CC(C(N)=O)N(C(=O)C(c2ccccc2)c2ccccc2)C3)c1 (stereo not drawn)	0.689
CC(=O)Nc1ccc(SCC(Cc2ccccc2)N2CCN(CC(C)C)CCC2=O)cc1 (stereo not drawn)	0.68
CCC(C)C1CNC(=S)N1CCc1cc(C(F)(F)F)cc(C(F)(F)F)c1 (stereo not drawn)	0.682
O=C(Nc1ccccc1)C1=CC(C2CCCCC2)CC(OCCCCO)O1 (stereo not drawn)	0.663

A portion of the library; rates above refer to the full screens.
